Assay outcomes from PubChem BioAssay.
E coli growth: E. coli growth inhibition, primary screen, OD600 | Escherichia coli growth, 23 h; hits give low values | OD600 absorbance (test concentration not listed) | hit rate 0.21% among 330,000 | AID 1053175, 2014;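 active = OD600 absorbance below the run mean of sample wells minus 3.6 SD, in any replicate, cut at about 0.56 in these data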;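 also: stock transfer was 300 nL into about 60 µL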
ALR inh: inhibitors of human ALR sulfhydryl oxidase, primary screen, biochemical, H2O2 detection, HRP-luminol luminescence, single point; FAD-linked sulfhydryl oxidase ALR (Homo sapiens), P55789; purified ALR, DTT oxidation; inhibition, % (test concentration not listed); hit rate 3.8% among 290,000;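 active = mean and each replicate at 75% or more; inconclusive = only one of the two met; inactive = neither met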;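 also: stock transfer was 7.5 nL into about 7.5 µL; 0% = neutral wells and 100% = wells with inactivated enzyme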
Target sequence (P55789 whole entry, looked up): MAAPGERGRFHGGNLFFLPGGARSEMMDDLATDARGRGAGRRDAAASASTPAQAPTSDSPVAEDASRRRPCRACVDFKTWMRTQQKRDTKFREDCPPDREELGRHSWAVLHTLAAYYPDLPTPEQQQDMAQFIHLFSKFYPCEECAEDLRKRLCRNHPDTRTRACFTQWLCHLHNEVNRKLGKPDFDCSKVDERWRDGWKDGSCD
Vif TR-FRET: inhibitors of Vif binding to APOBEC3G peptide, primary screen, biochemical, TR-FRET, GST-Vif 1-94, biotin-A3G peptide, dose response retest (AID 1117319). Virion infectivity factor (Human immunodeficiency virus type 1 group M subtype B (isolate …. TR-FRET GST-Vif / biotin-A3G peptide binding; higher % means a stronger effect; test concentration not given here; strong numbers were not always called active. hit rate 0.57% among 260,000. inhibition, %, or IC50 in µM where a hit was titrated;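 active = above the screen mean plus three standard deviations and confirmed in dose response; inconclusive = results disagree or hit not tested in dose response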;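 also: Vif residues 1-94 fused to GST binding biotinylated APOBEC3G peptide 110-148; 0% = full assay without inhibitor and 100% = GST in place of GST-Vif; retest series ran down from 100 µM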
FGF22 binding: binders of human FGF22 protein, primary screen, FGF22 synaptogenesis inhibitor project, biophysical, thermal shift, single point | recombinant FGF22 thermal shift, SYPRO orange fluorescence; percent of sucrose octasulfate shift, DMSO zero | calls only at 9.99 µM | hit rate 1.5% among 340,000;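 active = melting point raised past a set limit in the mean and every replicate; inconclusive = no clear call; three in four hits are not shown here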
Target sequence (Q9HCT0 whole entry, looked up): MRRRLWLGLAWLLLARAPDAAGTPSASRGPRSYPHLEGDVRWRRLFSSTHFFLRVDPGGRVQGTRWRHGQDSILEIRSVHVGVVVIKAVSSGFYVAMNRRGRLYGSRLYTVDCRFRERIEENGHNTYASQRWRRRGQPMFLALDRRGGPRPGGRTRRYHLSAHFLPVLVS
MLL AF4-AF9 inh: inhibitors of AF4 peptide binding to AF9, primary screen, biochemical, AlphaScreen, biotin-AF4 peptide, FLAG-AF9, single point. inhibition, % at 10 µM. AID 651704, 2012. hit rate 0.47% among 350,000. Protein AF-9 (Homo sapiens), P42568;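 active = every replicate reaching a set inhibition limit, whatever the replicate mean, cut at about 25% in these data; inconclusive = mean inhibition reaches that limit but some replicates miss it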;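 also: 0% = plate neutral control median and 100% = total signal loss; the record names both 10 and 1 µM as test concentration; the first replicate is given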
Target sequence (P42568 whole entry, looked up): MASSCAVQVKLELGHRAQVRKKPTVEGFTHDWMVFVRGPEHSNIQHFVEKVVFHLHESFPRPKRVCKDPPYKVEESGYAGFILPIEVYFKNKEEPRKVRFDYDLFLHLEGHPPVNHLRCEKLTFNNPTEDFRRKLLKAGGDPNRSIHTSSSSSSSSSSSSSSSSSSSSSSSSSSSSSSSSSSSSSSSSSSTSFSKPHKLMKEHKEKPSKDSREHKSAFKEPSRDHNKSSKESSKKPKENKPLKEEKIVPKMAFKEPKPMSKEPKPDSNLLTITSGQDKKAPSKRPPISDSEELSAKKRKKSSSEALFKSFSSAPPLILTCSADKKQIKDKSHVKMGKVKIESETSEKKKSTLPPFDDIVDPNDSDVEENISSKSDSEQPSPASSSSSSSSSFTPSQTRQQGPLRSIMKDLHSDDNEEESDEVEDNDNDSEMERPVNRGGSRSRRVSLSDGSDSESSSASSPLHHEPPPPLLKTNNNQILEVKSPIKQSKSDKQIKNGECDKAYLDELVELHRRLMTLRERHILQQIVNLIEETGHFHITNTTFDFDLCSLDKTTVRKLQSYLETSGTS
Ecoli rRNA inh: reduced GFP signal of wild-type E. coli, primary screen, bacterial rRNA inhibitor project, GFP/RFP fluorescence, OD600, single point; GFP signal change (wild-type ribosome), % (concentration not given with the values); hit rate 1.6% among 350,000; E. coli WT GFP vs humanized-ribosome RFP mutants, 24 h; hits give low values; DMSO median 0, no signal -100;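 active = significant combined selectivity score with lowered wild-type GFP, culture density cut under 30%, mutant RFP and density less affected; inactive = any of these conditions unmet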; also: one replicate is shown; some compounds called inactive have numbers as strong as hits
HNF4A DNA FP: change in binding of human HNF4A to DNA, primary screen, biochemical, fluorescence polarization, FITC-DNA; Hepatocyte nuclear factor 4-alpha (Homo sapiens), P41235; 1 h; activity change, % at 10 µM; hit rate 0.3% among 360,000; AID 1224865, 2016; in the data active = activity change above about 30%, passing the limit was not always enough;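 also: controls were the assay level and a saturating level of protein; the project sought stronger binding though the title names inhibitors; some compounds called inactive have numbers as strong as hits; positive values seem to mean higher polarization but the record does not say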
Ecoli rRNA inh OD600: further read-out of Ecoli rRNA inh, marked with its call; OD600 change, %; measured here: OD600 growth;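 optical density of the mix in the first replicate; 0 = DMSO median and -100 = no signal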
Ecoli rRNA inh RFP: second read-out of Ecoli rRNA inh, no call of its own (marks repeat the call); RFP signal change, %; measured here: RFP humanized mutant strains;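 first replicate; 0 = DMSO median and -100 = no signal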
* = called active by the depositor; i = inactive; ? = inconclusive; . = not tested or not shown; & = joins results of further samples. Not all compounds are listed. The share of hits here may be higher or lower than overall.

SMILES	E coli growth	ALR inh	Vif TR-FRET	FGF22 binding	MLL AF4-AF9 inh	Ecoli rRNA inh	Ecoli rRNA inh OD600	Ecoli rRNA inh RFP	HNF4A DNA FP
O=C(Nc1cccc(OCC(=O)N2CCOCC2)c1)c1ccc(C(F)(F)F)cc1	0.699	-1.8	.	i	1.7	-1.0	2.4	0.6	1.6
Cn1nnnc1Sc1c(Cl)cccc1[N+](=O)[O-]	0.692	-4.1	29.1%	.	.	.	.	.	0.1
CCSc1nnc(-c2cccc(S(=O)(=O)N(C)C)c2)n1-c1cc(OC)ccc1OC	0.655	-11.3	0.7%	.	.	.	.	.	-2.3
COCCCNc1nc2nonc2nc1N(C)CC1CCCN1C (centres undefined)	0.652	-0.6	10.8%	i	-1.5	7.4	8.2	-2.0	3.7
CCOc1ccc(-c2cn(-c3cccc(SC)c3)c(=O)[nH]2)cc1	0.723	.	11.4%	i	-0.5	-13.2	-5.8	2.9	3.3
Cc1cc(C(=O)Nc2cccc3c2O[C@H](CN(C)C(=O)Nc2ccc(C(F)(F)F)cc2)[C@H](C)CN([C@H](C)CO)C3=O)n(C)n1	.	.	.	i	19.2	-6.7	-1.1	-0.9	.
Cc1ccc(S(=O)(=O)N2CCN(C(=O)c3cc(S(=O)(=O)N4CCOCC4)ccc3F)CC2)cc1	0.643	.	.	i	-0.6	.	.	.	0.4
COc1ccc(CCNC(=O)CCCn2c(=O)c3cccn3c3cccnc32)c(OC)c1	0.706	4.1	-4.7%	i	-1.6	3.3	5.8	-1.7	-1.3
CC1CCN(c2nc(N(C)c3ccccc3)nc(N)c2[N+](=O)[O-])CC1	0.659	1.7	-7.8%	i	14.5	-4.8	2.0	2.1	-5.1
COc1cc(CN2CCCC(C)C2)cc([N+](=O)[O-])c1O (centres undefined)	0.736	4.0	4.9%	.	.	.	.	.	2.6
O=C(O)c1cc2c(s1)-c1ccccc1OC2	0.719	.	-5.2%	.	.	.	.	.	1.1
Cn1nnc(NC(=S)NC(=O)c2cccc3c(Br)cccc23)n1	.	-2.3	.	i	0.4	-3.6	-0.3	0.3	1.6
CC(=O)OC(CC(=O)O)C[N+](C)(C)C (centres undefined)	0.656&0.673	.	22.6%	i	2.0	7.3	12.6	-2.4	-0.9
NS(=O)(=O)c1cccc(NC(=O)Cn2cnc3ccccc3c2=O)c1	0.703	-2.6	?	.	.	.	.	.	-0.8
C[C@@H]1CCCCO[C@H](CN(C)C(=O)Nc2ccc(F)cc2)[C@H](C)CN([C@H](C)CO)C(=O)c2cc(NC(=O)C3CCCCC3)ccc2O1	.	.	.	i	-0.3	0.1	-2.1	-0.2	.
Cc1noc(C)c1C(=O)OCC(=O)N1CCN(S(=O)(=O)c2ccc3ccccc3c2)CC1	0.723	-11.4	1.3%	i	-0.4	5.9	2.6	0.8	-2.3
C[C@@H]1CN([C@H](C)CO)C(=O)c2cccc(NS(=O)(=O)c3cn(C)cn3)c2O[C@H]1CN(C)C(=O)Nc1ccc(C(F)(F)F)cc1	.	.	.	i	-3.1	1.8	5.8	-1.4	.
Cc1ccc2cc(CN(CC3CCCO3)S(=O)(=O)c3ccccc3)c3nnnn3c2c1 (centres undefined)	0.676	5.7	26.4%	.	.	-11.2	-12.6	17.4	2.1
CCOCN(C(=O)Cn1c(COC)nc2ccccc21)c1c(C)cccc1CC	0.688	.	1.3%	.	.	.	.	.	-1.1
Fc1ccccc1NC(=S)NNc1ncc(C(F)(F)F)cc1Cl	0.691	21.7	18.9%	.	.	-13.3	-11.3	4.8	0.2
C/C(=C\c1ccco1)C1C(C#N)=C(N)Oc2n[nH]c(-c3ccccc3)c21 (centres undefined)	0.649	9.8	15.7%	.	.	.	.	.	-0.9
C#CCNC(=O)C1=C[C@H](c2ccc3c(c2)OCO3)[C@@H](CCCO)[C@H](OCC)O1	.	.	-3.7%	i	-2.7&0.7	9.2	6.3	-4.6	4.5
Cc1nc(OCc2ccccc2)c2ccccc2n1	0.761	-7.2	66.9%	.	.	.	.	.	-2.7
COc1cc([N+](=O)[O-])ccc1-c1ccc(/C=N\n2cnnc2)o1	.	-5.1	.	i	-2.8	-2.5	23.8	0.8	9.9
C[C@H]1CN([C@@H](C)CO)C(=O)c2cc(/C=C/c3ccccc3)cnc2O[C@@H]1CN(C)Cc1ccccc1F	.	.	.	i	24.6	-41.1	-68.4	5.6	.
CCOc1ccc(NC(=O)c2cccs2)c([N+](=O)[O-])c1	0.726	-3.4	-0.2%	.	.	.	.	.	7.5
CNC[C@H]1OCCCC[C@H](C)Oc2ccc(NC(=O)Nc3ccc(OC)cc3)cc2C(=O)N([C@H](C)CO)C[C@@H]1C	.	.	.	i	-22.9	3.3	3.1	-1.9	.
O=C(CN1C(=O)C(=O)N(C2CCCC2)C1=O)NCCc1ccc(Cl)cc1Cl	0.699	-1.8	.	i	0.6	9.9	15.2	-3.1	-0.2
O=C(CSc1nnc(COc2ccccc2)o1)N1CCOCC1	0.681	-0.9	15.2%	i	-32.3	-2.4	-0.2	-4.7	-5.2
Cc1ccc(C)c(CSc2ncccc2C(=O)O)c1	0.665	4.4	-6.0%	.	.	.	.	.	-1.3
C[C@@H]1CC2[C@@H]3CC[C@H]4CC(=O)CC[C@]4(C)C3=CC[C@]2(C)[C@@]1(O)C(=O)CO (some centres undefined)	0.675	1.5	.	i	1.7	-2.3	-18.2	-2.4	-0.4
CCOC(=O)CNC(=O)CSc1nnc(Cn2cnc3ccccc32)n1C	0.699	-3.0	-1.9%	.	.	.	.	.	4.5
COc1ccc(S(=O)(=O)N2C[C@H](O)COC[C@@H]3O[C@@H](CC(=O)N[C@@H]4CCN(Cc5ccccc5)C4)CC[C@H]32)cc1	.	.	.	i	1.5	-2.5	5.1	-0.9	.
COc1ccccc1C(CNC(=O)C(C)(C)Oc1ccc(Cl)cc1)N1CCCC1 (centres undefined)	0.654	3.6	-1.8%	i	1.3	3.9	3.7	0.1	1.7
Cc1ccc(C2(C)NC(=O)N(CC(=O)N(Cc3ccccc3)C(C)(C)C)C2=O)cc1 (centres undefined)	0.656	.	.	i	5.0	-2.4	-28.4	3.9	4.5
Cc1ccc(OCc2nnc(SCC(=O)O)n2-c2ccccc2)cc1	0.691	.	.	i	-5.6	.	.	.	0.1
COc1ccc(-c2nc(-c3ccccc3)nc(N3CCN(C)CC3)c2C#N)cc1	0.678	-0.7	-17.4%	.	.	.	.	.	-0.7
O=C(C[C@H]1CC[C@H]2[C@@H](COC[C@@H](O)CN2C(=O)Nc2ccc(C(F)(F)F)cc2)O1)NCC1CCCCC1	.	.	.	i	-2.5	-55.5	-81.5	-13.4	.
CO[C@H]1CN(C)C(=O)c2cc(NC(=O)C3CC3)ccc2OC[C@@H](C)N(C(=O)c2ccccc2)C[C@H]1C	.	.	.	i	-1.0	-2.3	-3.9	-0.9	.
COCC#Cc1ccc([C@H]2[C@H](CO)N3CCCCN(S(=O)(=O)c4ccccc4C)C[C@@H]23)cc1	.	.	.	i	-3.3	1.2	-33.1	3.6	.
C[C@H]1CN([C@@H](C)CO)C(=O)c2cc(NC(=O)CCC(F)(F)F)ccc2O[C@@H]1CN(C)Cc1ccc(Cl)c(Cl)c1	.	.	.	i	4.4	-8.2	-46.0	12.1	.
CN1[C@@H]2c3ccc(-c4ccccc4)c(=O)n3C[C@H]1[C@H](CO)[C@H]2C(=O)NCC1CC1	.	.	.	i	1.4	-0.9	-0.6	0.1	.
C[C@H](CO)N1C[C@H](C)[C@@H](CN(C)Cc2ccc3c(c2)OCO3)Oc2c(NS(C)(=O)=O)cccc2C1=O	0.693	-0.1	13.4%	i	-0.6&0.3	4.6&-1.8	15.5&4.9	-0.9&-0.6	2.5
O=C(C[C@@H]1C[C@H]2c3cc(NC(=O)CC4CC4)ccc3O[C@H]2[C@@H](CO)O1)NCC1CC1	.	.	.	i	-0.1	4.1	-6.1	-0.3	.
C[C@@H]1CN([C@H](C)CO)C(=O)c2cc(NS(=O)(=O)c3ccc(F)cc3)ccc2O[C@H]1CN(C)C(=O)Nc1cccc2ccccc12	.	.	.	i	-3.9	-1.0	-0.2	2.1	.
Cc1nn(C)c(C(=O)N/N=C/c2ccc(C(F)(F)F)cc2)c1[N+](=O)[O-]	.	-1.2	4.3%	.	.	.	.	.	2.9
NC(=O)c1c(N)sc2c1CCCCC2	0.702	12.9	6.7%	.	.	2.1	-4.9	9.6	2.6
CN(C(=O)c1cc2n(n1)C(C(F)(F)F)CC(c1ccco1)N2)c1ccccc1 (centres undefined)	0.673	-12.4	?	.	.	.	.	.	3.2
CC(C)=CC(=O)NCCc1ccccc1	0.622	-0.8	4.1%	.	.	.	.	.	2.5
COc1ccccc1NC(=O)N(C)C[C@@H]1Oc2ncc(Br)cc2C(=O)N([C@@H](C)CO)C[C@@H]1C	.	.	.	i	-0.6	-1.2	-3.6	-4.8	.
COc1cc(NS(=O)(=O)c2ccc(NC(=O)/C=C/C(=O)O)cc2)nc(OC)n1	0.619	-1.4	.	i	-10.4	6.9	7.6	-2.4	-3.2
O=[N+]([O-])CC(c1ccccc1)c1c[nH]c2ccccc12 (centres undefined)	0.66	15.8	.	i	.	-46.0	-50.5	-12.9	-2.0
COc1ccc(S(=O)(=O)c2nnn(-c3ccccc3Cl)c2N)cc1	0.697	-21.1	?	i	0.3	1.7	0.3	-0.4	0.8
CN1/C(=C\C(=O)COC(=O)c2ccccc2O)C(C)(C)c2ccccc21	0.703	-15.4	-8.3%	i	-0.2	-38.4	-60.6	30.9	5.6
CCc1ccc(-c2cc3c(=O)n(CC(=O)NCCCN4CCN(Cc5ccccc5)CC4)nc(C)n3n2)cc1	0.678	-1.8	.	i	4.2	3.9	1.7	11.9	-0.5
O=C(CN(Cc1cccs1)C(=O)CSc1nnc(COc2ccccc2)o1)NC1CCCC1	0.696	-3.2	-12.1%&4.2%	.	.	.	.	.	-2.6
COc1ccccc1N1CCN(S(=O)(=O)CCNC(=O)COc2ccccc2)CC1	.	.	-0.8%	i	-0.5	-6.3	-13.6	3.8	2.4
Cc1ccn2c(CNCCCn3cccn3)c(C(=O)N3CCCCCC3)nc2c1	0.701	-17.4	.	i	-2.1	3.5	7.5	0.7	-0.2
COC(=O)CN1C(=S)N(Cc2ccccc2)C(=O)C1CC(=O)Nc1ccc(Br)cc1 (centres undefined)	0.679	-17.8	-1.8%	.	.	.	.	.	-0.3
Cc1ccc(OCc2nc(C#N)c(N3CCCCC3)o2)cc1	0.696	-1.8	.	i	14.8	-32.1*	4.4*	-3.1*	3.3

In another format: 2 of the compounds above.
Structure | E coli growth | ALR inh | Vif TR-FRET | FGF22 binding | MLL AF4-AF9 inh | Ecoli rRNA inh | Ecoli rRNA inh OD600 | Ecoli rRNA inh RFP | HNF4A DNA FP
CCc1ccc(-c2cc3c(=O)n(CC(=O)NCCCN4CCN(Cc5ccccc5)CC4)nc(C)n3n2)cc1 | 0.678 | -1.8 | . | i | 4.2 | 3.9 | 1.7 | 11.9 | -0.5
CN(C(=O)c1cc2n(n1)C(C(F)(F)F)CC(c1ccco1)N2)c1ccccc1 (centres undefined) | 0.673 | -12.4 | ? | . | . | . | . | . | 3.2
